FGF22 binding: shifts melting point of recombinant human FGF22; recombinant FGF22 thermal shift, SYPRO orange fluorescence; percent of sucrose octasulfate shift, DMSO zero; calls only at 9.99 µM; AID 651658; Q9HCT0; 340,000 compounds, 1.5% hits;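 active = melting point raised past a set limit in the mean and every replicate; three in four hits are not shown here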
Target sequence (Q9HCT0 whole entry, looked up): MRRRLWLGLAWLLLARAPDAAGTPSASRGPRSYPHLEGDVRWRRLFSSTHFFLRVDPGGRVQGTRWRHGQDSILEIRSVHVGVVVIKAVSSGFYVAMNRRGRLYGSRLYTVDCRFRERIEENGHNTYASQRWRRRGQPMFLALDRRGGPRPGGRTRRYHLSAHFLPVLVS
Ecoli rRNA inh: inhibitors of bacterial rRNA selective over humanized ribosomes; E. coli WT GFP vs humanized-ribosome RFP mutants, fluorescence, 24 h; stronger effect = lower value; DMSO median 0, no signal -100; GFP signal change (wild-type ribosome), % (test concentration not listed); 350,000 compounds, 1.6% hits;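 active = significant combined selectivity score with lowered wild-type GFP, culture density cut under 30%, mutant RFP and density less affected; inactive = any of these conditions unmet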; also: one replicate is shown; some compounds called inactive have numbers as strong as hits
Ecoli rRNA inh OD600: recorded beside Ecoli rRNA inh, whose call it bears; OD600 change, %; measured here: OD600 growth;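 optical density of the mix in the first replicate; 0 = DMSO median and -100 = no signal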
Ecoli rRNA inh RFP: further read-out of Ecoli rRNA inh, marked with its call; RFP signal change, %; measured here: RFP humanized mutant strains;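 first replicate; 0 = DMSO median and -100 = no signal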
Numbers without * were called inactive; i = inactive. These rows are one share of the data; the hit share may differ from the screen's.

SMILES	FGF22 binding	Ecoli rRNA inh	Ecoli rRNA inh OD600	Ecoli rRNA inh RFP
CCCNC(=O)N1C[C@H]2[C@@H](c3ccccc31)[C@@H](CO)N2C(=O)C1CCOCC1	i	0	11	-3.0
C[C@H]1CCCCO[C@H](CN(C)C(=O)C2CCCCC2)[C@@H](C)CN([C@@H](C)CO)C(=O)c2cc(NC(=O)Cc3ccccc3)ccc2O1	i	-5	-15	-0.1
COc1ccc(C[C@H]2CCn3cc(nn3)COC[C@H](Cc3ccccc3)NC2=O)cc1	i	0	3	-0.8
Cc1ccc(S(=O)(=O)N[C@@H]2CC[C@@H](CCNC(=O)C3CCC3)O[C@@H]2CO)cc1	i	-1	-13	-2.8
CC(C)NC(=O)Nc1ccc2c(c1)C(=O)N([C@@H](C)CO)C[C@H](C)[C@@H](CN(C)C(=O)Nc1ccccc1)OCCCC[C@@H](C)O2	i	0	6	-1.5
O=C(C[C@@H]1CC[C@H](NC(=O)c2ccncc2)[C@@H](CO)O1)NCC1CC1	i	2	3	-0.8
Cc1ccc(S(=O)(=O)Nc2ccc3c(c2)C(=O)N([C@@H](C)CO)C[C@@H](C)[C@H](CN(C)C(=O)c2ccncc2)OCCCC[C@H](C)O3)cc1	i	-1	6	-1.4
COc1ccc(S(=O)(=O)Nc2ccc3c(c2)C(=O)N([C@H](C)CO)C[C@H](C)[C@@H](CN(C)Cc2ccncc2)O3)cc1	i	-2	0	0.0
COc1ccccc1C(=O)Nc1ccc2c(c1)C(=O)N(C)C[C@@H](OC)[C@@H](C)CN[C@@H](C)CO2	i	1	-5	2.9
CS(=O)(=O)N1CC(=O)N2[C@@H](CO)[C@@H](c3ccc(Br)cc3)[C@@H]2C1	i	6	20	-1.9
CO[C@H]1CN(C)C(=O)c2cc(NC(=O)C3CCCC3)ccc2OC[C@@H](C)N(C)C[C@@H]1C	i	1	-1	-1.6
C[C@@H]1CCCCO[C@H](CN(C)C(=O)Nc2ccc(F)cc2)[C@@H](C)CN([C@@H](C)CO)C(=O)c2cc(NC(=O)Nc3ccccc3)ccc2O1	i	0	-2	-10
C[C@@H]1CN([C@@H](C)CO)C(=O)c2cc(NC(=O)Cc3ccccc3)ccc2O[C@@H](C)CCCCO[C@@H]1CN(C)C(=O)Nc1ccccc1	i	0	4	-2.7
O=C(Nc1ccccc1F)N[C@@H]1CC[C@H](CC(=O)N2CCCCC2)O[C@@H]1CO	i	-2	4	-1.6
Cc1ccc(S(=O)(=O)N(C)C[C@H]2Oc3ccc(NS(=O)(=O)c4ccc(F)cc4)cc3C(=O)N([C@@H](C)CO)C[C@H]2C)cc1	i	-4	-19	9.5
COc1ccc(S(=O)(=O)Nc2cccc3c2O[C@@H](CN(C)C(=O)NC2CCCCC2)[C@@H](C)CN([C@H](C)CO)C3=O)cc1	i	-2	-3	0.7
O=C(C[C@@H]1CC[C@@H]2[C@H](COC[C@H](O)CN2C(=O)c2ccccc2)O1)NCCCN1CCOCC1	i	4	23	-0.5
COCCNC(=O)C[C@@H]1C[C@H]2c3cc(NC(=O)Nc4ccc(F)cc4)ccc3O[C@H]2[C@@H](CO)O1	i	2	9	-1.8
C[C@H]1CCCCO[C@@H](CN(C)S(=O)(=O)c2cn(C)cn2)[C@@H](C)CN([C@@H](C)CO)C(=O)c2cc(NC(=O)Nc3ccccc3)ccc2O1	i	-4	0	-2.6
COC(=O)[C@H]1[C@H](CO)[C@H]2Cn3c(ccc(-c4ccccc4)c3=O)[C@H]2N1Cc1ccccn1	i	2	-6	1.4

Brought forward from above: 7 entries, then new ones.
SMILES	FGF22 binding	Ecoli rRNA inh	Ecoli rRNA inh OD600	Ecoli rRNA inh RFP
O=C(Nc1ccccc1F)N[C@@H]1CC[C@H](CC(=O)N2CCCCC2)O[C@@H]1CO	i	-2	4	-1.6
Cc1ccc(S(=O)(=O)N(C)C[C@H]2Oc3ccc(NS(=O)(=O)c4ccc(F)cc4)cc3C(=O)N([C@@H](C)CO)C[C@H]2C)cc1	i	-4	-19	9.5
COc1ccc(S(=O)(=O)Nc2cccc3c2O[C@@H](CN(C)C(=O)NC2CCCCC2)[C@@H](C)CN([C@H](C)CO)C3=O)cc1	i	-2	-3	0.7
O=C(C[C@@H]1CC[C@@H]2[C@H](COC[C@H](O)CN2C(=O)c2ccccc2)O1)NCCCN1CCOCC1	i	4	23	-0.5
COCCNC(=O)C[C@@H]1C[C@H]2c3cc(NC(=O)Nc4ccc(F)cc4)ccc3O[C@H]2[C@@H](CO)O1	i	2	9	-1.8
C[C@H]1CCCCO[C@@H](CN(C)S(=O)(=O)c2cn(C)cn2)[C@@H](C)CN([C@@H](C)CO)C(=O)c2cc(NC(=O)Nc3ccccc3)ccc2O1	i	-4	0	-2.6
COC(=O)[C@H]1[C@H](CO)[C@H]2Cn3c(ccc(-c4ccccc4)c3=O)[C@H]2N1Cc1ccccn1	i	2	-6	1.4
CCC(=O)N1CC2(CCN(C(=O)Nc3c(C)noc3C)CC2)c2c([nH]c3cc(OC)ccc23)[C@H]1CO	i	4	5	-0.4
C[C@@H]1CN([C@H](C)CO)S(=O)(=O)c2ccc(C#Cc3cccnc3)cc2O[C@H]1CN(C)C	i	0	4	-1.9
C[C@@H]1CN([C@@H](C)CO)C(=O)c2cc(-c3ccccc3F)cnc2O[C@H]1CN(C)C(=O)C1CCCCC1	i	5	5	0.5
CN(C)CC(=O)N1CCCCN2[C@@H](CO)[C@@H](c3ccc(-c4ccccc4)cc3)[C@@H]2C1	i	5	13	-1.4
COc1cccc(S(=O)(=O)N[C@H]2CC[C@H](CCNC(=O)Nc3cc(F)ccc3F)O[C@H]2CO)c1	i	-12	-10	-0.6
C[C@H](CO)N1C[C@H](C)[C@@H](CN(C)C)Oc2cc(C#CCC3CCCC3)ccc2S1(=O)=O	i	7	-5	-0.1
CC(C)NC(=O)Nc1ccc2c(c1)C(=O)N([C@@H](C)CO)C[C@H](C)[C@H](CN(C)C(=O)Cc1ccccc1)OCCCC[C@@H](C)O2	i	3	5	-1.7
C[C@H]1CN([C@@H](C)CO)C(=O)c2cccc(NC(=O)C3CCOCC3)c2O[C@H]1CN(C)C(=O)Nc1ccc(F)cc1	i	2	0	-1.0
COc1ccc(C#Cc2ccc([C@H]3[C@H](CO)N4CCCCN(S(=O)(=O)c5cn(C)cn5)C[C@@H]34)cc2)cc1	i	-16	-55	19
OC[C@@H]1[C@H](c2ccc(Br)cc2)[C@@H]2CNCCCCN12	i	2	4	1.3
N#C[C@@H]1[C@@H](c2ccccc2-c2ccccc2F)[C@@H](CO)N1C(=O)C1CCC1	i	-1	-9	2.4
CCC(=O)N(C)C[C@H]1Oc2ncc(/C=C/c3ccccc3)cc2C(=O)N([C@H](C)CO)C[C@@H]1C	i	0	12	-4.6
C[C@@H]1CN([C@@H](C)CO)S(=O)(=O)c2ccc(C#CC3(O)CCCC3)cc2O[C@@H]1CN(C)C(=O)Cc1cccnc1	i	1	-5	-0.5
C/C=C/c1ccc([C@@H]2[C@@H](CO)N(C(=O)CC)[C@@H]2CNC(=O)CC)cc1	i	2	-4	-2.0
C[C@H](CO)N1C[C@H](C)[C@@H](CN(C)C(=O)c2ccc(F)cc2)Oc2cc(C3=CCCC3)ccc2S1(=O)=O	i	0	-14	4.4
CC1C=NC(S(=O)(=O)N2CC[C@@H]3[C@H](CO)N(C)c4ccc(-c5ccccc5F)cc4[C@@H]32)=N1 (stereo partly drawn)	i	-5	-16	3.5
CN1C(=O)c2cc(NC(=O)c3ccccc3)ccc2OC[C@@H]2O[C@H](CC(=O)O)CC[C@@H]21	i	-1	-5	-0.3
CC(C)NC(=O)N(C)C[C@@H]1Oc2ncc(C#Cc3ccccc3F)cc2C(=O)N([C@H](C)CO)C[C@@H]1C	i	4	3	1.1
C[C@@H]1CN([C@@H](C)CO)C(=O)c2cccc(NC(=O)C3CCCCC3)c2O[C@H]1CN(C)CC1CC1	i	-7	-13	-1.0
CO[C@H]1CN(C)C(=O)c2ccc(NS(C)(=O)=O)cc2OC[C@@H](C)NC[C@@H]1C	i	1	2	-2.3
COc1cccc(-c2cnc3c(c2)C(=O)N([C@H](C)CO)C[C@@H](C)[C@@H](CN(C)C(=O)CC2CC2)O3)c1	i	6	0	-0.7
Cc1cccc(S(=O)(=O)N2C[C@@H](O)COC[C@H]3O[C@@H](CC(=O)Nc4ccccc4)CC[C@@H]32)c1	i	-5	-14	-2.8
Cc1ccc(S(=O)(=O)N(C)C[C@@H]2OCCCC[C@H](C)Oc3ccc(N(C)C)cc3C(=O)N([C@@H](C)CO)C[C@@H]2C)cc1	i	-2	-6	0.7
CN1[C@@H]2Cn3c(ccc(-c4ccncc4)c3=O)[C@H]1[C@@H](C(=O)N1CCC(Cc3ccccc3)CC1)[C@@H]2CO	i	-1	-8	-0.9
O=C(C[C@@H]1C[C@H]2c3cc(NC(=O)C4CCC4)ccc3O[C@H]2[C@H](CO)O1)NCc1ccc(Cl)cc1	i	-10	-14	2.9
O=C(Cc1ccccn1)NCC[C@H]1CC[C@@H](NC(=O)Nc2ccccc2)[C@H](CO)O1	i	5	6	-2.4
C[C@H]1CN([C@@H](C)CO)C(=O)c2cccc(NC(=O)Nc3ccc(C(F)(F)F)cc3)c2O[C@H]1CN(C)CC1CCCCC1	i	1	-12	-1.4
Cc1noc(C)c1NC(=O)Nc1ccc2c(c1)C(=O)N([C@@H](C)CO)C[C@@H](C)[C@@H](CN(C)S(=O)(=O)c1ccc(Cl)cc1)O2	i	1	-5	-1.1
C[C@@H]1CN([C@@H](C)CO)S(=O)(=O)c2ccc(C#Cc3cccnc3)cc2O[C@H]1CN(C)CC1CCOCC1	i	-11	-7	2.5
CCCNC(=O)N(C)C[C@@H]1Oc2ncc(C#Cc3ccccc3F)cc2C(=O)N([C@@H](C)CO)C[C@H]1C	i	2	4	-0.3
CCC(=O)N1CCC2(CC1)CN(Cc1cccc(Cl)c1)[C@@H](CO)c1[nH]c3cc(OC)ccc3c12	i	5	3	2.8
Cc1ccc(S(=O)(=O)N(C)C[C@@H]2Oc3ccc(NC(=O)Nc4ccc(C(F)(F)F)cc4)cc3CC(=O)N([C@@H](C)CO)C[C@@H]2C)cc1	i	4	3	-0.1
CCC(=O)N1CC2(C1)[C@H](c1ccc(-c3ccc(C#N)cc3)cc1)[C@H](CO)N2C(C)=O	i	-1	-4	1.8
C[C@H](CO)N1C[C@H](C)[C@@H](CN(C)C(=O)Nc2ccc(C(F)(F)F)cc2)Oc2c(NC(=O)c3cnccn3)cccc2C1=O	i	-2	6	0.7
C/C=C/c1ccc2c(c1)O[C@@H](CN(C)S(=O)(=O)c1ccc(F)cc1)[C@@H](C)CN([C@@H](C)CO)S2(=O)=O	i	-4	-12	9.7
Cc1cccc(-c2ccc([C@@H]3[C@@H](CO)N4CCCCN(C(=O)NC(C)C)C[C@H]34)cc2)c1	i	0	-9	7.8
CC(C)CC#Cc1ccc2c(c1)O[C@H](CN(C)C(=O)c1ccccc1F)[C@@H](C)CN([C@@H](C)CO)S2(=O)=O	i	-6	-8	4.7
CN1C(=O)c2cc(NC(=O)C3CCCC3)ccc2OC[C@@H]2O[C@H](CC(=O)Nc3ccccc3)CC[C@@H]21	i	1	-13	-2.4
CCCN1C[C@@H](C)[C@H](OC)CN(C)C(=O)c2cc(NS(=O)(=O)c3ccccc3)ccc2OC[C@@H]1C	i	1	7	-0.3
COc1ccc(NC(=O)N[C@H]2CC[C@H](CCNC(=O)c3ccccc3F)O[C@H]2CO)cc1	i	1	1	-1.4
CC(C)C(=O)Nc1ccc2c(c1)C(=O)N(C)[C@H]1CC[C@H](CC(=O)O)O[C@H]1CO2	i	3	-1	-0.5
C[C@H]1CN([C@@H](C)CO)C(=O)Cc2cc(NC(=O)Nc3ccc4c(c3)OCO4)ccc2O[C@H]1CN(C)C	i	2	2	3.7
CCC(=O)N1C[C@H](C)[C@H](OC)CN(C)C(=O)c2cc(NC(=O)Nc3ccc(Cl)cc3)ccc2OC[C@H]1C	i	-3	-18	1.7
Cc1ccc(-c2ccc3c(c2)O[C@@H](CN(C)Cc2ccccc2)[C@@H](C)CN([C@H](C)CO)S3(=O)=O)cc1	i	-1	-7	7.7
COc1ccc(S(=O)(=O)Nc2cccc3c2O[C@@H](CN(C)C(=O)Nc2c(C)noc2C)[C@@H](C)CN([C@@H](C)CO)C3=O)cc1	i	3	5	-0.2
C[C@H]1CN([C@@H](C)CO)C(=O)c2cc(NC(=O)CCN3CCOCC3)ccc2O[C@H]1CN(C)S(=O)(=O)c1ccccc1	i	4	5	-2.9
COc1cccc(S(=O)(=O)Nc2ccc3c(c2)[C@H]2C[C@H](CC(=O)NCc4cccc(F)c4)O[C@H](CO)[C@H]2O3)c1	i	-1	-32	6.7
Cc1ccccc1-c1cnc2c(c1)C(=O)N([C@H](C)CO)C[C@H](C)[C@@H](CN(C)Cc1ccncc1)O2	i	-3	11	0.9
C[C@H](O)C#Cc1ccc2c(c1)O[C@H](CN(C)C)[C@@H](C)CN([C@H](C)CO)S2(=O)=O	i	-2	-2	-1.2
COc1ccc(NC(=O)N(C)C[C@H]2Oc3ccc(NS(C)(=O)=O)cc3C(=O)N([C@H](C)CO)C[C@@H]2C)cc1	i	4	7	-0.8
CO[C@@H]1CN(C)C(=O)c2ccc(NC(=O)C3CCCC3)cc2OC[C@@H](C)N(C(C)=O)C[C@@H]1C	i	1	6	-2.0

For convenience, part of the list above.
SMILES	FGF22 binding	Ecoli rRNA inh	Ecoli rRNA inh OD600	Ecoli rRNA inh RFP
COc1ccc(NC(=O)N(C)C[C@H]2Oc3ccc(NS(C)(=O)=O)cc3C(=O)N([C@H](C)CO)C[C@@H]2C)cc1	i	4	7	-0.8
CO[C@@H]1CN(C)C(=O)c2ccc(NC(=O)C3CCCC3)cc2OC[C@@H](C)N(C(C)=O)C[C@@H]1C	i	1	6	-2.0

Bioassay records: PubChem, Broad Institute
